CapD inh = blocks the Bacillus anthracis CapD enzyme; purified CapD enzyme, fluorescence intensity read-out; stronger effect = lower value; some hits fall short of the stated cut; z-score (no concentration beside the values); 140,000 tested, 0.23% active;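 active means z-score under -4 in either of two replicates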;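 further: stock transfer was 100 nL into about 40 µL; score is relative to mean and spread of the plate; one replicate is shown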
AID504770 = E. coli YBA685 growth inhibition, screen for V. cholerae RctB inhibitors | E. coli YBA685 rctB-dependent plasmid, OD600 growth, 3 h; stronger effect = lower value | z-score (no concentration beside the values) | 130,000 tested, 0.27% active | AID 504770;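 active means z-score under -2 on both plates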;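 further: wells of about 30 µL received 100 nL stock; score is relative to mean and SD of the test wells; the first replicate is given; strong numbers were not always called active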
* marks the source's active call; other numbers are inactive results; x = not tested or not shown.

Sample of the layout:
molecule,CapD inh,AID504770
O=C1CN(C(=O)c2ccccc2)C(=S)N1,x,-1.1
O=C(/C=C/Sc1nc2ccccc2o1)c1ccccc1,-1.2,0.3
CC(=O)N(CCc1ccccc1)Cc1nc2ccccc2c(=O)[nH]1,x,-0.75
COc1ccc(Cl)cc1C(=O)N1CCCC1C(=O)OCc1ccccc1 (stereo not given),-0.075,-1.1
O=C(Nc1ccc(Cl)cc1C(=O)c1ccccc1)c1cc2cc([N+](=O)[O-])ccc2s1,-0.31,x
Nc1cc(S(=O)(=O)O)c(N)c2c1C(=O)c1ccccc1C2=O,-1,x

The listing (from the top)
molecule,CapD inh,AID504770
O=C1CN(C(=O)c2ccccc2)C(=S)N1,x,-1.1
O=C(/C=C/Sc1nc2ccccc2o1)c1ccccc1,-1.2,0.3
CC(=O)N(CCc1ccccc1)Cc1nc2ccccc2c(=O)[nH]1,x,-0.75
COc1ccc(Cl)cc1C(=O)N1CCCC1C(=O)OCc1ccccc1 (stereo not given),-0.075,-1.1
O=C(Nc1ccc(Cl)cc1C(=O)c1ccccc1)c1cc2cc([N+](=O)[O-])ccc2s1,-0.31,x
Nc1cc(S(=O)(=O)O)c(N)c2c1C(=O)c1ccccc1C2=O,-1,x
CCN1CCN(C(=O)C2CC(=O)N(CCc3ccc(C)cc3)C2)CC1 (stereo not given),-0.52,1.8
COc1ccc(CNC(=O)c2oc3ccccc3c2C)cc1,0.52,-0.65
COC(=O)CSc1ncc(C#N)c(N)n1,x,1.5
Cc1[nH]c2ccccc2c1C(Nc1ccccn1)c1ccccc1 (stereo not given),0.07,0.6

Other results
molecule,CapD inh,AID504770
CC1=C(C(=O)Nc2ccc(C)c(Cl)c2)C(c2ccc(F)cc2)NC(=O)N1 (stereo not given),-0.31,x
O=C(CN1CCC(N2CCCCC2)CC1)N1CCC2(CC1)OCCO2,x,-0.1
CN(Cc1ccccc1)C(=O)COC(=O)c1ccc2ccccc2n1,1.9,-0.3
COc1cc(C2C(C#N)=C(N)Oc3n[nH]c(C)c32)cc(Br)c1OCc1ccc(F)cc1 (stereo not given),-0.27,x
CCCCCOc1ccc(-c2ccc(Br)cc2)cc1,0.58,x
O=C(O)c1cc(C(=O)O)c(-c2ccccc2)c(C(=O)O)c1,0.52,-0.3
Cc1cccc(-c2nc(CN3C(=O)C(C)N=C(c4ccccc4F)c4cc(Cl)ccc43)c(C)o2)c1 (stereo not given),11,-0.3
Cn1c(=O)c([N+](=O)[O-])c(Sc2ccccc2)c2ccccc21,-0.16,x
CCOc1ccc(C2C(C(=O)Nc3cc(C)on3)c3ccccc3C(=O)N2CCN2CCOCC2)cc1 (stereo not given),0.39,-0.2
CCOC(=O)C1=C(C)OC(N)=C(C#N)C1c1ccc(Cl)cc1 (stereo not given),1.9,x

The list continues.
molecule,CapD inh,AID504770
NC(CC(=O)O)C1CCCCC1 (stereo not given),-0.23,1.2
CCN(CC)C(=O)COc1coc(CN2CCc3ccccc3C2)cc1=O,x,0.35
CC(=O)NC1C(OC(C)=O)OC(COC(C)=O)C(OC(C)=O)C1OC(C)=O (stereo not given),0.16,x
COc1ccc(C(=O)N2CCCc3ccccc32)cc1,-0.39,1.6
COC(=O)c1ccc(NCN2C(=O)S/C(=C/c3ccccc3Cl)C2=O)cc1,-0.27,x
COc1ccc(Oc2coc3cc(OC(C)C(=O)OC4CCCCC4)ccc3c2=O)cc1 (stereo not given),-0.055,x
CC(=O)Nc1ccc(OC(=O)c2cccc(C)c2)cc1,x,0.35
Cc1cc(C)c(C2=NON3N(C(=O)c4ccc(Cl)cc4Cl)c4ccccc4N23)c(C)c1,-0.45,x
O=C(O)c1ccc(S(=O)(=O)n2ncc3ccccc32)cc1,-0.45,-1.2
Cc1nc2c3ccccc3n(CCc3ccccc3)c2s1,0.26,-0.55

New compounds follow:
molecule,CapD inh,AID504770
COc1ccccc1CCCN,x,0.05
S=c1sc2c(N3CCN(Cc4ccccc4)CC3)ncnc2n1-c1ccccc1,-0.42,x
CC(CCc1ccccc1)NC(=O)C1=CCN(S(=O)(=O)c2ccc(F)cc2)CC1 (stereo not given),0.22,-0.15
Cc1c(CC(=O)O)c2c(n1-c1ccc(F)cc1)CCCC2=O,0.025,x
CCCC(CC(=O)N1CCN(c2cccc(C)c2C)CC1)n1ccnc1 (stereo not given),x,0.65
Cc1cccc(-n2c(=O)c3[nH]c4ccccc4sc=3c2=O)c1,-0.33,0.3
COc1cc(/C=N/N2CC(=O)NC2=O)ccc1OCc1csc(C)n1,x,-0.55
Cc1ccc(Cn2c3ccccc3c3cn[nH]c(=O)c32)cc1,-0.035,1.5
CCOC(=O)c1c(N)oc2c(-c3ccc(CC)cc3)c3c(C(=O)OCC)c(N)oc3cc12,0.52,0.45
O=C(Nc1nnnn1/N=C/c1ccccc1F)c1ccc(F)cc1,-0.73,-0.7

(more compounds)
molecule,CapD inh,AID504770
COC(=O)c1cn(CC(=O)Nc2ccc(S(=O)(=O)NC3=NCCCCC3)cc2)c2ccccc12,x,-0.1
COC(=O)C(Cc1ccccc1)NC(=O)Nc1ccccc1OC (stereo not given),x,0.45
COc1ccc(C2CC(=O)C(c3ccccc3)=C(Nc3ccccc3)S2)cc1 (stereo not given),0.05,x
CC(C)(O)C1(C)NCCc2ccccc21 (stereo not given),0.28,-0.6
CCOc1cc(/C=C2\SC(=S)N(C(C(=O)O)C(C)C)C2=O)ccc1O (stereo not given),-4.8*,-0.15
Clc1ccc(-c2nc3ccccc3nc2-c2ccc(Cl)cc2)cc1,-0.39,x
N#CC1=C(N)C(C#N)(C#N)C(c2ccccc2)C2CCCC=C12 (stereo not given),x,-0.9
CCOC(=O)C1=C(N)N2C(=O)C(C)SC2=C(C(=O)OC)C1c1ccc(C)cc1 (stereo not given),x,0.4
CCC(C1=C(O)CC(C)(C)CC1=O)C1=C(O)CC(C)(C)CC1=O,x,-0.75
O=C(O)c1ccccc1-c1ccccc1C(=O)Nc1nccs1,0.38,0.7

(further entries)
molecule,CapD inh,AID504770
CC1=C(C(=O)Nc2ccc(C(=O)NCCN3CCOCC3)cc2)SCCO1,-0.11,0.15
Cn1c(C(=O)NC2CCCCCC2)cc2sc(Cl)cc21,-0.32,-1.5
CCC(C)(C)n1nnnc1C(c1ccccc1OC)N1CCN(C(=O)c2ccco2)CC1 (stereo not given),x,0.15
O=C(COc1ccc(F)cc1)OCc1cc(=O)n2c3c(sc2n1)CCCC3,7.6,0.15
COC(=O)C1=CN(C2CCCCC2)C=C(C(=O)OC)C1c1cccc(C)c1,34,0.2
Cn1c(CCCNC(=O)c2cccs2)nc2ccccc21,-0.94,0.05
O=C1CC(c2ccc(Cl)cc2)Sc2nc3ccccc3n21 (stereo not given),0.88,0.5
CCCn1c(SCc2ccc(Br)cc2)n[nH]c1=O,x,-2.6
O=C(CC(=O)Nc1cccnc1)Nc1cccnc1,0.96,-0.05
O=C(c1cncc(NS(=O)(=O)c2ccc(Cl)cc2)c1)N1CCN(Cc2ccccc2)CC1,72,-0.35

In the list so far, these contain two or more sulfur atoms.
molecule,CapD inh,AID504770
S=c1sc2c(N3CCN(Cc4ccccc4)CC3)ncnc2n1-c1ccccc1,-0.42,x
CCOc1cc(/C=C2\SC(=S)N(C(C(=O)O)C(C)C)C2=O)ccc1O (stereo not given),-4.8*,-0.15

Next records
molecule,CapD inh,AID504770
N#Cc1c(Nc2ccccc2)s[nH]c1=O,0.23,-2.6*
CCOc1ccccc1C1C(C#N)=C(SCc2ccccc2)NC(=O)C1C#N (stereo not given),1.4,-0.5
Cc1ccc(N2C(=O)c3[nH]nc(-c4ccc(Br)cc4)c3C2c2ccco2)cc1 (stereo not given),0.25,-0.05
Fc1ccc(Oc2cnc3ccccc3n2)cc1,-0.38,0.65
CCOc1ccc(-n2c(CNC(=O)c3ccco3)nnc2SCC(=O)Nc2nc3ccccc3s2)cc1,-0.4,x
COc1ccc(NC(=O)CC2C(=O)N(C)C(=S)N2CCNC(C)=O)cc1 (stereo not given),-0.45,1.2
Cc1ccc2[nH]c(=O)c3cc(C(=O)N(CC(C)C)CC(C)C)sc3c2c1,0.41,-0.25
Cc1ccccc1-n1c(=S)sc2c1nc(SCc1ccccc1Cl)n1c3ccccc3nc21,-0.4,x
CCNC(=S)N1CCN(S(=O)(=O)c2ccc(C)cc2)CC1,x,-0.25
O=c1[nH]nc(-c2ccc(F)cc2)cc1Cc1ccco1,1.1,0.95

Additional structures
molecule,CapD inh,AID504770
Cc1cccn2c(=O)c3cc(C(=O)N(C)C)n(C)c3nc12,x,-0.45
CC(=O)NCCC(=O)Nc1c(C)cc(C)cc1C,x,0.4
COc1ccc(NC(=O)c2nn3c(C(F)(F)F)cc(-c4ccco4)nc3c2Cl)c(OC)c1,0.02,x
O=C(C1CC1)N1CCc2cc(Br)cc(S(=O)(=O)NCCCN3CCCCC3)c21,0.33,0.05
CC(C)c1cc(C(=O)O)c2cc(Br)ccc2n1,-0.16,1
COc1cc(-c2cc(=O)c3cc(OCC(=O)O)ccc3o2)cc(OC)c1OC,x,3.3
CCOC(=O)COc1nc(-c2ccccc2)cc(-c2ccco2)c1C#N,32,-0.1
N#Cc1cc(C#N)c(SCC(=O)Nc2cccc(C(F)(F)F)c2)nc1N,25,x
Cc1ccc(-c2nn(-c3ccccc3)cc2C(=O)NCCN(C)C)cc1,0.49,-0.1
N#Cc1ccc(CONC(=O)C23CC4CC(CC(C4)C2)C3)cc1,x,-0.35

New compounds follow:
molecule,CapD inh,AID504770
FC(F)(F)c1cccc(COCCn2cc(-c3ccc4ccccc4n3)cn2)c1,18,x
Cc1ccc2c(c1)c1c(n2CC2COC(C)(C)O2)C(=O)CCC1 (stereo not given),3,0.35
Cc1nnc(NC(=O)c2ccc(S(=O)(=O)N3CCCC3)cc2)o1,x,-0.8
CCCNC(=O)CCC(=O)N1CCC(c2nc(OC)cc(OC)n2)CC1,-0.17,x
COc1cc(S(=O)(=O)N2CCCCC2)ccc1F,-1.2,1.7
COc1cc2c(cc1OC)C(C)N(Cc1sc3ccccc3c1C)CC2 (stereo not given),0.96,1.1
CC1CC(C)CN(C(=O)Cn2c(=O)n(Cc3ccc(C(=O)NCc4ccco4)cc3)c(=O)c3ccccc32)C1 (stereo not given),0.48,1.1
CN(C(=O)CN1CCN(S(=O)(=O)c2cccs2)CC1)c1ccccc1,-0.57,x
COC(=O)c1[nH]c2sc3c(c2c1-n1cccc1)CCCC3,0.04,-0.25
Cc1cccn2cc(-c3ccc(Cl)cc3)cc12,43,0.05

(further entries)
molecule,CapD inh,AID504770
O=C1CCCN1c1ccc(S(=O)(=O)Nc2ccc(I)cn2)cc1,0.52,-0.6
COC(=O)c1cc2c(cc1NC(=O)c1ccc3c(=O)n4c(nc3c1)CCCCC4)OCO2,0.21,-1.1
CN1CCN(c2c3c(c(C#N)c4nc5ccccc5n24)CCC3)CC1,0.01,x
Cc1cc(C)cc(NC(=O)Nc2cc(-c3ccccc3)nn2C)c1,-1.7,0.15
CCC(C)N1C(=O)N(c2cccc3ccccc23)C(n2oc(=O)n(-c3cccc4ccccc34)c2=O)C1(C)C (stereo not given),5.8,x
O=C1CS(=O)CN1c1ccc(Br)cc1 (stereo not given),0.27,0.25
Cc1noc(C)c1COc1ccc(C(=O)OCC(=O)Nc2sc3c(c2C(N)=O)CCC3)cc1,x,0.55
c1ccc(-c2csc(-c3ccc(-c4ccccn4)s3)n2)cc1,30,0.05
Cc1ccc(CNC(=O)C2C3C=CC4(CN(Cc5cccnc5)C(=O)C24)O3)cc1 (stereo not given),-0.21,-0.35
CC1=NN(C(=O)c2ccc(Br)cc2)C(O)(c2ccccc2)C1 (stereo not given),-1.1,x

(listing goes on)
molecule,CapD inh,AID504770
CCOC(=O)c1cc(-c2ccnn2C(=O)c2ccc(C)cc2)on1,-0.025,-0.45
Cc1ncc(S(C)(=O)=O)c(-c2cc(N3CCOCC3)nc(N3CCOCC3)n2)n1,-0.38,x
CC1=C(C(=O)OC(C)C)C(c2cn(-c3ccccc3)nc2-c2cccs2)C(C(=O)OC(C)C)=C(C)N1,7.4,x
CCS(=O)(=O)c1nc2ccccc2n1CCOc1ccc(Cl)cc1,-0.35,0.1
O=c1oc2cc(O)ccc2cc1-c1nnc(NCc2ccccc2)s1,1.5,x
CCN1C(=O)OC(C)(CCc2ccccc2)C1(C)O (stereo not given),0.05,0.2
CCCc1c(C#N)c(N)[nH]c(=S)c1C#N,2.9,1.1
Cc1ccc2c(C)c(C(=O)N(Cc3ccccc3F)C3CCS(=O)(=O)C3)oc2c1 (stereo not given),-0.005,0.55
O=C1OC(c2cc([N+](=O)[O-])cc([N+](=O)[O-])c2)=N/C1=C\c1ccccc1Br,-1.1,x
CC1CCCCC1NC(=O)CN1N=C(c2ccccc2)CCC1=O (stereo not given),0.41,0.25
O=C(NC1CCCCC1)c1ccc2c(c1)NC(=O)C(CS(=O)(=O)Cc1ccc(F)cc1)N2 (stereo not given),8.3,-0.15
CCc1ccc(Oc2coc3cc(OC(C)C(=O)OCC(C)C)ccc3c2=O)cc1 (stereo not given),-0.58,-0.5
